# From PubChem
# PINK1 modulator: modulators of PINK1 expression | PINK1 immunofluorescence, high-content cytometry, 24 h | Potency, µM (top dose mostly 76.6 µM), inactives show at the top dose activation (PINK1 increase), actives largely listed as activators | 410,000 compounds, 0.2% hits | AID 624263; active = well fitted activation curve with a large enough effect; inconclusive = small, poorly fitted or top-dose-only effect; inactive = flat fitted curve, though single readings scatter; cell line not stated here;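 note: potency is the fitted concentration of half-maximal effect; % of control where 0% means no effect; nearly all actives have a fitted effect of over 65% in size; a mitochondrial uncoupler was the plate control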
#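 Stable cell line treated 24 h with compounds at 5 concentrations (CCCP controls), then fixed and immunostained for PINK1 plus nuclear and cell stains; PINK1 immunofluorescence quantified by laser-scanning microplate cytometry.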
# Menin MLL FP FL: inhibitors of human menin-MLL interaction, wild-type MLL peptide; AID 1766; FP activity change, % at 61.4 µM; 290,000 tested, under 10 active; Fluorescence polarization, fluorescein-MLL peptide displacement from menin; inconclusive = falling polarisation curve, or a change in total fluorescence; inactive = total fluorescence flat and polarisation flat or rising; no compound was filed as active; the % refers to the polarisation; negative = inhibition;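 note: % of control where 0% means no effect; inhibitors lower the polarisation; unlabelled MLL peptide was the positive control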
# gsp agonist: agonists of gsp mutant (McCune-Albright syndrome); gsp mutant cells, cAMP HTRF, 30 min; control for the full effect not named in the record; Potency, µM (doses to about 76.9 µM), without a hit: top-dose activation (cAMP increase), actives largely listed as activators; 340,000 compounds, 0.13% hits; AID 624287; active = well fitted activation curve with a large enough effect; inconclusive = small, poorly fitted or top-dose-only effect, or another doubt; inactive = no such curve, though single readings can be large or run the other way; cell line not stated here;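 note: phosphodiesterase inhibitor Ro 20-1724 added with compounds to block cAMP breakdown; potency is the fitted concentration of half-maximal effect; nearly all actives have a fitted effect of over 60% in size; about a fifth of the inactives were tested at one dose only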
#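 Cells in DMEM/10% FBS with G418 were pretreated with compounds in DMSO plus […] (300 uM stock) for 30 min at 37C. cAMP was measured by HTRF (cAMP-d2 plus anti-cAMP antibody-K) after 30 min at room temperature.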
# ClpP mod: qHTS Assay for Activators of ClpP | ATP-dependent Clp protease proteolytic subunit (Bacillus subtilis (strain 168)), P80244 | purified B. subtilis ClpP, FRET peptide cleavage, 20 min | Potency, µM (doses to about 57.5 µM), for inactives: top-dose activity change, negative = active | 340,000 compounds, 1.9% hits; active = well fitted falling curve with a large enough effect; inconclusive = small, poorly fitted or top-dose-only effect; inactive = no such curve, though single readings can be large or run the other way; note: potency is the fitted concentration of half-maximal effect; the source files actives as falling curves though it sought activators and does not explain the sign; nearly all actives have a fitted effect of over 65% in size; many hits overshoot -100%
# Target sequence (P80244 whole entry, looked up): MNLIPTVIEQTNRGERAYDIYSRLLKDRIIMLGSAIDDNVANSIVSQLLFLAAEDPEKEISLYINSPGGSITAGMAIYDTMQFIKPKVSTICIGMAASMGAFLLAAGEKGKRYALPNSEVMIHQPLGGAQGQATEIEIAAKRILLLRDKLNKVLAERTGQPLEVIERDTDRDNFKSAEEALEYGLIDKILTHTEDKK
#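 FRET quenching reversal measured ClpP activation: 10 microg/mL B. subtilis ClpP at pH 8 with the FRET-FV decapeptide, read at 430 nm after 320 nm excitation. The 20-min minus 0-min signal was scaled between DMSO/no-enzyme wells and ADEP (5.8 microM final).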
# gsp antagonist: gsp mutant antagonism | gsp-mutant cells, cAMP HTRF, 30 min; control for the full effect not named in the record | Potency, µM (titrated, usually from 76.9 µM), without a hit: at the highest dose activity change, negative = inhibition, usual class: inhibitors | 340,000 compounds, 0.4% hits | AID 624288; active = falling curve of any shape with a large fitted effect; inconclusive = falling curve, mostly with a smaller effect; inactive = flat or rising curve; cell line not stated here;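 note: intracellular cAMP measured with PDE inhibitor Ro 20-1724 present during compound exposure; potency is the fitted concentration of half-maximal effect; % is set by controls: 0 for no effect and ±100 for the full control effect; nearly all actives have a fitted effect of over 65% in size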
#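 HTRF cAMP measurement after 30 min RT detection following 30 min, 37C compound treatment alongside […] (added as 300 uM solution) in G418-selected cells seeded at 2000/well and grown 16–24 h.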
# Sfp PPTase inh: blocks B. subtilis Sfp PPTase activity. Potency, µM, without a hit: max response, negative = inhibition, usual class: inhibitors. 310,000 compounds, 3.5% hits. Q9F4F7. AID 1490. Biochemical Sfp PPTase activity, qHTS; active = well fitted inhibition curve with a large enough effect; inconclusive = small, poorly fitted or top-dose-only effect, or another doubt; inactive = no such curve, though single readings can be large or run the other way;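 note: the enzyme is Sfp with the accession as filed and its product quenches rhodamine fluorescence; potency is the fitted concentration of half-maximal effect; 0% = enzyme reaction without inhibitor and -100% = no enzyme wells; top concentration of the series not given in the record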
#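 Fluorescence-quenching assay: 15 nM Sfp-PPTase preincubated 15 min at room temperature with compound, then 5 uM rhodamine-CoA and 12.5 uM BHQ-2-labelled YbbR peptide added. Fluorescence (ex 525/em 598 nm) read at start and after 30 min; difference gives rate.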
# D2 ag: human D2 receptor agonism in beta-arrestin assay; AID 624465; DiscoveRx PathHunter D2 beta-arrestin, luminescence, 90 min; 100% = 57 uM dopamine signal; activation, % (no concentration beside the values); 360,000 compounds, 0.084% hits; in the data active = activation above about 40%; inconclusive = about 15% to 40%; inactive = below about 15%; note: compound concentration not given in the record; the text of the record calls up to 30% inactive
# Target sequence (P14416 whole entry, looked up): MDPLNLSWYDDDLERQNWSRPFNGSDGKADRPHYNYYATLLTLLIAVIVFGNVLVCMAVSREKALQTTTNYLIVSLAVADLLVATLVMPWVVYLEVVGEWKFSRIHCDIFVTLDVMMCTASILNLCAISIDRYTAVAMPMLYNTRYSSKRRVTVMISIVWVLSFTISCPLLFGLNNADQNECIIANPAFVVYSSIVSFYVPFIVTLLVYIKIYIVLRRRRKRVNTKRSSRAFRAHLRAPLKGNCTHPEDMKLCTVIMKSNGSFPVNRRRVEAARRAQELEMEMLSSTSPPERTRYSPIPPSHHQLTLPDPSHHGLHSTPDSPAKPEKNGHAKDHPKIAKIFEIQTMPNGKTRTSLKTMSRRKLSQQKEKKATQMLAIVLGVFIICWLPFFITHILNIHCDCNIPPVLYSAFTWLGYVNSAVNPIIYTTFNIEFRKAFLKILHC
#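 DiscoveRx PathHunter D2 beta-arrestin cells (2,100/well) attached overnight, then compound-stimulated 90 min at 37 C in HBSS/10 mM HEPES/0.1% Tween-20 buffer; beta-galactosidase complementation read by luminescence after 1 h at ambient temperature. Dopamine 57 uM final (EC100) as control.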
# The depositor's hits bear a star; u = inconclusive; x = no result given; & = joins results of further samples; [ ] = dose if it differs, or a comment.
SMILES,PINK1 modulator,Menin MLL FP FL,gsp agonist,ClpP mod,gsp antagonist,Sfp PPTase inh,D2 ag
N#CC1=C(N)Oc2cc(O)c(Cl)cc2C1c1ccccc1F (stereo unspecified),10%,u,20%,-2.8%,u,0%,7.9
CC(/C=C1\SC(=S)N(NC(=O)c2ccncc2)C1=O)=C\c1ccccc1,4.3%,25,12%[15.4 µM],x,-14%,45µM*,3.1
COc1cc(CNCCc2ccccc2)cc(Br)c1OCC(=O)Nc1ccccc1C,-3.2%,1.1,u,0.6%,4%,-14%,-1.3
COc1ccc(C)cc1-n1c(SCC(=O)NCC2CCCO2)nc2c([nH]c3ccccc32)c1=O (stereo unspecified),6.0%,x,-33%[inhibitor],-23%,7%,7%,1.8
Cc1ccccc1NC(=S)NNC(=O)c1ccco1,0.9%,4.7,28%,1.8%,6%,15%,-8.2
Cc1sc(NC(=O)C2C3CCC(O3)C2C(=O)O)c(C(=O)OC(C)C)c1-c1ccc(Cl)cc1 (stereo unspecified),-0.8%,-3.1,6%,-4.0%,u,56µM*,-1.3
O=C(CC1SC(=Nc2ccc(OC(F)F)cc2)N(CCC2=CCCCC2)C1=O)Nc1ccccc1F (stereo unspecified),10%,4.1,0%,1.1%,13%,30%[activator],-0.9
CCN(CC)S(=O)(=O)c1ccc(NC2c3ccccc3C(=O)N2c2ccc(C)cn2)cc1 (stereo unspecified),-0.3%,4.1,-6%,-4.0%,-6%,8%,-5.6
O=C(CSC(=S)N1CCOCC1)N1N=CCC1c1ccccc1 (stereo unspecified),0.0%,2.5,u,5.6%,13%,21%,-3.1
O=C(Nc1nc(-c2ccccc2)c(-c2ccccc2)s1)c1ccc(S(=O)(=O)N2CCCCC2)cc1,1.8%,1.2,12%[15.4 µM],-2.2%,5%,-3%,0.3
CCSc1ccccc1C(=O)N1CCN(c2ccccc2F)CC1,-1.3%[38.3 µM],0.6,-34%[inhibitor],-0.3%,3%,0%,-1.3
COc1ccc(CN2CCC(N3CC(C)OC(C)C3)CC2)c(OC)c1 (stereo unspecified),-1.6%,-11,-15%,x,-12%,-25%,1.2
C=CCNC(=O)CC(=O)N/N=C/c1cccc(Br)c1,3.9%[38.3 µM],-0.1,u,-2.6%,-1%,10%,-2.9
O=C1c2ccccc2C(=O)C1c1ccc(Br)cc1,3.4%,-13&-2.6,23%,x,4%,10%&10%,-6.0
C[C@H](CO)N1C[C@H](C)[C@@H](CN(C)S(=O)(=O)c2ccccc2)Oc2c(NS(=O)(=O)c3ccccc3)cccc2C1=O,0.8%,x,x,-3.2%,-7%,x,3.0
CN(/N=C/c1c[nH]c2ccccc12)c1cnn(-c2ccc(F)c(Cl)c2)c(=O)c1Cl,15%,21,19%,0.2%,-11%,25%,-3.6
Cc1cccc(NC(=O)CCN2C(=O)c3ccccc3C2=O)c1,-0.6%,-4.6,4%,-2.2%,6%,-13%,-20
CSc1ccc(Cl)c(C(=O)N2CCN(CC(=O)N3CCCC3)CC2)c1,-2.4%,x,-15%,-4.3%,-14%,x,-2.4
CCOc1ccc(NC(=O)c2cnccn2)cc1,0.9%,-1.5,-1%,0.3%,7%,18%,-2.5
O=C(Nc1cc(Cl)ccc1O)C1CC(c2ccccc2Cl)=NO1 (stereo unspecified),4.6%,8.9,-5%,-0.3%,-9%,-5%,1.5
Cc1cc(=O)n2[nH]c(-c3ccco3)nc2n1,1.3%[38.3 µM],4.1,-34%[inhibitor],-17%,0%,-14%,-1.0
COc1ccc(-c2noc(CN3CCN(c4ccccc4F)CC3)n2)cc1OC,0.8%,-0.7,-57%,-0.1%,3%,4%,0.6
COc1cc(/C=C/C(=O)O)cc(S(=O)(=O)Nc2ccccc2SC)c1OC,-0.9%,7.4,-20%,-1.0%,6%,-4%,-3.8
CC[n+]1c(/C=C(/C)SC)sc2ccccc21,14%,3.8,3%,0.6%,13%,u,-4.8
CN(C)CCCNC(=O)C[C@H]1C[C@H](C(=O)N2CCCCC2)[C@@]2(C)c3[nH]c4cc(CCC(=O)N(C)C)ccc4c3CCN2C1=O,-1.4%,x,x,-4.4%,9%,x,-1.3
CC1CCCC(C)N1C(=O)COC(=O)c1ccco1 (stereo unspecified),2.3%,x,-1%[15.4 µM],0.3%,12%,x,-1.6
COc1ccc(OCC(=O)N2CCN(C(=O)c3ccc(F)cc3)CC2)cc1,-1.0%,2.7,-1%,-1.9%,4%,8%,-2.1
CCN(Cc1ccc(OC)c(F)c1)C(=O)/C=C/c1ccc(S(=O)(=O)N2CCOCC2)cc1,1.7%,x,1%,-0.5%,-17%,x,-4.5
COc1nc2ccccc2nc1OC,0.2%,-5.5,0%,-20%,-4%,14%,-4.9
CC(C)(Oc1ccc(Cl)cc1)C(=O)N/N=C/c1cn[nH]c1-c1ccccc1,4.5%[38.3 µM],-2.6,3%,-0.1%,-5%,u,-0.4
COc1ccc(-c2nc(N)nc(C)c2Oc2ccccc2Br)c(O)c1,-5.3%,-7.1,-3%,1.6%,-13%,6%,1.0
Cc1c(C(=O)c2ccc(Cl)c(Cl)c2)cnc2cc3c(cc12)OCO3,-0.5%,1.4,-35%[inhibitor],-0.7%,-15%,9%,-5.0
O=[N+]([O-])c1cccc(N=NNc2cccc([N+](=O)[O-])c2)c1,u,x,-15%,0.9%,x,x,-3.4
CCCC(=O)Nc1sc(C(=O)Nc2cccc(N)c2)c(C)c1C(=O)OC,8.9%,-3.7,-2%[15.4 µM],0.5%,-17%,-3%,7.2
CCOC(=O)C1CCN(C(=O)CN2C(=O)c3cccnc3Oc3ccc(C)cc32)CC1,1.0%,x,6%,-0.8%,0%,6%,-4.5
Cc1cccnc1NC(=O)Nc1ccc(F)cc1,-0.6%,1.3,-11%,-1.6%,-1%,-9%,-2.1
C[N+](C)(C)CCOP(=O)([O-])OC[C@H](O)CO,0.9%,2.3,x,-2.6%,10%,14%,2.4
Cc1ccc(N2C(=O)CC(Cc3ccc(Cl)cc3)C2=O)cc1 (stereo unspecified),1.4%,4.6,-10%[15.4 µM],7.1µM*,-1%,13%,-3.7
CCOc1cc(CNCC2CCCN2CC)cc(Cl)c1OC (stereo unspecified),0.9%,-8.2,15%[15.4 µM],x,7%,5%,-0.8
COc1ccc(-c2nc3ccc(C)cn3c2NCc2ccc3c(c2)OCO3)cc1,-0.6%,-2.4,40%,u,-11%,u,11
CCCN(CC(=O)Nc1ccc(F)c(F)c1F)C(=O)C1CC(=O)N(Cc2ccccc2)C1 (stereo unspecified),-1.3%,x,-25%,1.1%,3%,x,-3.0
O=S(=O)(c1ccc(Oc2ccc(Cl)cc2)c(S(=O)(=O)N2CCCCC2)c1)N1CCCCC1,-0.7%[38.3 µM],2.5,-16%,-2.1%,2%,11%,-2.3
COc1ccc(C(C)NC(=O)Nc2ccc(C(C)=O)cc2)cc1OC (stereo unspecified),0.4%,x,u,0.8%,-18%,5%,2.3
COc1ccc(C(C[N+](=O)[O-])c2c(C)cc3ccccn23)c(OC)c1 (stereo unspecified),1.9%,5.2,-3%[15.4 µM],x,5%,-19%,-0.5
COc1ccc(NC(=O)c2oc3ccccc3c2NC(=O)C2CC2)cc1,28%[38.3 µM],1.6,-24%,603%,-33%,u,-2.6
O=C(COC(=O)c1ccc([N+](=O)[O-])o1)NCCCc1ccccc1,0.5%,x,19%,2.1%,15%,x,6.8
CCCCN1C(=O)C(CC(=O)NCCc2ccccn2)CC(C(=O)N(C(C)C)C(C)C)=C1C (stereo unspecified),-1.1%,x,4%,0.8%,x,x,-1.2
CC(=O)Nc1cccc(C(=O)OCC(=O)NNC(=O)c2ccc([N+](=O)[O-])cc2)c1,1.2%,x,9%[15.4 µM],0.4%,1%,x,2.8
COc1ccc(S(=O)(=O)N2CCOCC2)cc1NC(=O)c1cccc(-n2cccc2)c1,-0.1%,x,-1%[15.4 µM],0.8%,1%,x,3.0
O=C(OCc1nnc(-c2ccc(Br)cc2)o1)c1ccco1,0.4%,6.0,-19%,1.5%,5%,10%,-6.0

# Overlap with the part before: 2 entries, followed by the next part.
SMILES,PINK1 modulator,Menin MLL FP FL,gsp agonist,ClpP mod,gsp antagonist,Sfp PPTase inh,D2 ag
COc1ccc(S(=O)(=O)N2CCOCC2)cc1NC(=O)c1cccc(-n2cccc2)c1,-0.1%,x,-1%[15.4 µM],0.8%,1%,x,3.0
O=C(OCc1nnc(-c2ccc(Br)cc2)o1)c1ccco1,0.4%,6.0,-19%,1.5%,5%,10%,-6.0
COc1cccc(C2c3c(oc4cc(C)c(C)cc4c3=O)C(=O)N2CCCN(C)C)c1 (stereo unspecified),1.3%,5.3,21%,-3.8%,9%,12%,4.1
CCC(CO)NCc1ccccc1OC(C)C (stereo unspecified),-1.7%,-1.6,-118%[inhibitor],-0.9%,7%,7%,-2.6
CC(C)OC(=S)N/C(=N\S(=O)(=O)c1ccccc1)c1ccccc1,6.6%[38.3 µM],4.6,4%,0.4%,7%,14µM*,1.8
CCc1ccccc1NC(=O)CSc1nnc([C@@H](NC(=O)OC(C)(C)C)C(C)C)o1,5.8%[38.3 µM],-0.7,-1%,1.2%,-12%,0%,-3.2
C=C(C)Cn1c(SCC(=O)N/N=C/c2ccccc2)nc2ccccc2c1=O,5.6%,2.6,-2%,16%,4%,79µM*,0.4
COc1cccc(NC(=O)c2ccccc2-c2nc(-c3ccc(Cl)cc3)no2)c1,9.4%,0.6,22%,-12%,-10%,-2%,0.1
CCCc1cc2c(=O)c(-c3ccc4c(c3)OCCO4)coc2cc1OC(=O)c1ccco1,-0.2%,1.9,13%,-2.6%,1%,0%,-2.6
CC(C)c1nc(SCC(=O)NC2CCCC2)c2ccccc2n1,1.8%,4.1,22%[15.4 µM],x,13%,9%,-3.3
FC(F)(F)c1cccc(Nc2nc(N3CCCC3)nc(N3CCCC3)n2)c1,u,1.1,-5%[15.4 µM],x,x,9%,-19
CC(C)(C)CC(C)(C)c1ccc(OCC(=O)N/N=C/c2ccc(S(=O)(=O)O)o2)cc1,-1.7%,u,-13%[15.4 µM],1.9%,0%,-23%,1.5
